Screens from PubChem BioAssay.
StopGo reporter: lowers the luciferase signal of an FMDV 2A StopGo reporter. 410,000 compounds, 1.2% hits. Potency, µM (series often up to 57.9 µM), without a hit: top-dose signal change, negative = less light. AID 1159524. human cells with a luciferase reporter of 2A StopGo recoding; control for the full effect not named in the record; active = well fitted falling curve with a large enough effect; inconclusive = small, poorly fitted or top-dose-only effect; inactive = no such curve, though single readings can be large or run the other way; tested in HEK293T cells; note: % is set by controls: 0 for no effect and ±100 for the full control effect; nearly all actives have a fitted effect of over 45% in size; luciferase light after 4 h
Cruzain noTriton: cruzain (T. cruzi) inhibition without detergent; P25779; purified cruzain, Z-FR-AMC fluorescence, no detergent; Potency, µM, without a hit: max response, negative = inhibition, usual class: inhibitors; 200,000 compounds, 2.3% hits; AID 1476; active = well fitted curve in the direction sought with a large enough effect; inconclusive = small, poorly fitted or top-dose-only effect, or another doubt; inactive = no such curve, though single readings can be large; an effect the other way counts as inactive or inconclusive;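 note: plate controls were enzyme without inhibitor for no effect and buffer without enzyme for full effect; nearly all actives have a fitted effect of over 40% in size; top concentration of the series not given in the record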
Target sequence (P25779 123-467 limits assumed): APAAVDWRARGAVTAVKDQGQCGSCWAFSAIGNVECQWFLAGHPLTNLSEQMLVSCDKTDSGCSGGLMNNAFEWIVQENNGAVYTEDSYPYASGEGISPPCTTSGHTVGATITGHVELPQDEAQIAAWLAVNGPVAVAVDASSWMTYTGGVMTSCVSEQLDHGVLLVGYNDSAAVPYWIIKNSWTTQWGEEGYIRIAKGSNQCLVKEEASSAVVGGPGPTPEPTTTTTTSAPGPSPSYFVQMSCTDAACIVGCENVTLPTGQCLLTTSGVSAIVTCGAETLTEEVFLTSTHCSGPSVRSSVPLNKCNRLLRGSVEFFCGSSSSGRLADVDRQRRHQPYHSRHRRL
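Detergent-free condition (0.00005% Triton X-100) in acetate buffer pH 5.5 with DTT. 1.5 nM enzyme and compound were pre-mixed 15 min, then 2 uM Z-FR-AMC substrate added; reaction progress from fluorescence change between first and third reads (60 s).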
Cruzain inh Det: blocks cruzain activity in presence of Triton detergent. P25779. purified cruzain, Z-FR-AMC fluorescence, 0.01% Triton. Potency, µM, for inactives: max response, negative = inhibition, hits mostly inhibitors. 200,000 compounds, 0.43% hits. AID 1478; active = well fitted curve in the direction sought with a large enough effect; inconclusive = small, poorly fitted or top-dose-only effect, or another doubt; inactive = no such curve, though single readings can be large; an effect the other way counts as inactive or inconclusive;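 note: plate controls were neutral wells for no effect and buffer without enzyme for full effect; nearly all actives have a fitted effect of over 40% in size; top concentration of the series not given in the record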
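Sodium acetate buffer (100 mM, pH 5.5) containing 5 mM DTT and 0.01% Triton X-100 hosted 1.5 nM cruzain and test compound for 15 min at room temperature. Cleavage of 2 uM Z-FR-AMC was then tracked by fluorescence.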
NS1 function inh: influenza NS1 inhibition; S. cerevisiae slowed by influenza A NS1, growth recovery by OD600; 270,000 compounds, 0.4% hits; Potency, µM (top dose mostly 46.1 µM), for inactives: at the highest dose activity, positive = more growth; note: actives are rising curves; nearly all actives have a fitted effect of over 50% in size
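S. cerevisiae expressing influenza A NS1, grown in glucose, washed, then diluted 1:100 into pH 6.0 -URA galactose medium with 23 nl compound. Growth recovery read as OD600; NS1-free strain serves as control.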
SARS PLP yeast: blocks SARS-CoV papain-like protease in a yeast assay | S. cerevisiae expressing SARS-CoV PLpro, growth rescue; control for the full effect not named in the record | Potency, µM (titrated, usually from 32.9 µM), without a hit: at the top dose activity, positive = growth rescue | 330,000 compounds, 0.19% hits; note: 0% is about no effect; nearly all actives have a fitted effect of over 55% in size; growth read by luminescence after 48 h
MARV entry inh: blocks Marburg virus binding to or entry into cells | Marburg virus pseudotyped entry inhibition, cell reporter; control for the full effect not named in the record; about a third of the inactives were read at about 46 µM | AID 540276 | Potency, µM (highest dose often 37.8 µM), without a hit: top-dose activity change, negative = inhibition, actives largely listed as inhibitors | 300,000 compounds, 1.8% hits; active = well fitted inhibition curve with a large enough effect; inconclusive = small, poorly fitted or top-dose-only effect, or effect the other way; inactive = flat fitted curve, though single readings scatter; tested in HEK293 cells; about a fifth of its hits are not listed in these tables; note: % is set by controls: 0 for no effect and ±100 for the full control effect; luciferase read-out
RE007 growth inh: less growth of the S. pombe RE007 Vpr strain; S. pombe RE007 Vpr strain, BacTiter-Glo ATP luminescence, 24 h; control for the full effect not named in the record; 360,000 compounds, 0.21% hits; Potency, µM (titrated, usually from 92.2 µM), for the others: at the top dose activity change, negative = less growth; active = well fitted falling curve with a large enough effect; inconclusive = small, poorly fitted or top-dose-only effect; inactive = no such curve, though single readings can be large or run the other way;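 note: % is set by controls: 0 for no effect and ±100 for the full control effect; nearly all actives have a fitted effect of over 50% in size; the assay follows cell death caused by Vpr and the record does not say whether a fall means rescue or toxicity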
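Fission yeast RE007 carrying one integrated HIV-1 vpr copy, seeded at OD 0.01 in PMG+AL medium with 23 nL pinned compound. Grown 24 h at 30 degrees; viability read by BacTiter-Glo luminescence after 5 min.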
LASV entry inh: Lassa virus entry inhibition. Potency, µM (highest dose often 37.9 µM), inactives show at the top dose activity change, negative = inhibition, most hits filed as inhibitors. 300,000 compounds, 1.2% hits. Lassa virus pseudotype entry inhibition, cell reporter; control for the full effect not named in the record; active means well fitted inhibition curve with a large enough effect; inconclusive means small, poorly fitted or top-dose-only effect, or effect the other way; inactive means flat fitted curve, though single readings scatter; tested in HEK293 cells; note: % is set by controls: 0 for no effect and ±100 for the full control effect; nearly all actives have a fitted effect of over 50% in size; luciferase read-out
* marks the source's active call; other numbers are inactive results; ? = inconclusive; . = not tested or not shown; [ ] = remark or other dose. Unless noted, calls come from the whole dose curve; as a rule, active means well fitted rising curve with a large enough effect; inconclusive means small, poorly fitted or top-dose-only effect; inactive means no such curve, though single readings can be large or run the other way. Potency is the fitted concentration of half-maximal effect.

SMILES	StopGo reporter	Cruzain noTriton	Cruzain inh Det	NS1 function inh	SARS PLP yeast	MARV entry inh	RE007 growth inh	LASV entry inh
O=C(Nc1ccc(CN2CCCCC2)cc1)c1sc2ccccc2c1Cl	4%	.	.	-74%	-5%	?	-2%	-13%
CCn1cc(C(=O)NCCc2ccccc2C)c(=O)c2ccc(C)nc21	-4%	.	.	12%	1%	.	19%	.
Cc1cc(=O)[nH]c2ccc(Cc3ccccc3)cc12	-23%	.	.	.	.	?	8%	-27%[46.1 µM]
O=C(NCCCn1ccnc1)c1ccc(NS(=O)(=O)c2ccc(Cl)c(Cl)c2)cc1	-10%	.	.	.	-2%	?	-21%	-30%
Cc1cc(C)n2nc(-c3ccccc3)cc2n1	51%[activator]	.	.	-6%	0%	0%[46.1 µM]	-30%	?
O=C(CSc1ncc(S(=O)(=O)c2ccc(Br)cc2)c(=O)[nH]1)NCc1ccc(Cl)cc1	-6%	?	-14%	.	.	1%[46.1 µM]	.	7%[46.1 µM]
Cc1ccc(S(=O)(=O)N2CCCc3cc(NC(=O)c4ccc(C(F)(F)F)cc4)ccc32)cc1	1%	?	-3.8%	.	.	.	.	?
O=c1c2ccccc2nnn1CSc1nnc(-c2ccc3c(c2)OCO3)o1	4%	3%	3.1%	0%	-3%	?	-4%	-15%
O=c1[nH]c(=S)c2c(n1-c1ccccc1)CCC2	.	-9%	-6.0%	-2%	1%	8%	4%	18%
Nc1c(C(=O)N/N=C/c2ccc(F)cc2)oc2nc(-c3ccccc3)cc(-c3ccco3)c12	-13%	.	.	13%	-2%	?	3%	?
Cc1cc(=O)c2n(Cc3ccccc3Cl)nc[n+]2[nH]1	2%	-14%	-6.3%	-6%	-27%	?	9%	3%
O=[N+]([O-])c1cc(N=Nc2ccc3ccccc3c2)ccc1O	12%	.	.	3%	0%	.	-2%	.
Cc1ccc(C)c(OCC(=O)Nc2ccc(N3CCOCC3)cc2N2CCOCC2)c1	-18%	.	.	.	5%	?	-19%	-4%
Cc1cccc(NC(=O)c2ccc(COc3ccc4ccccc4c3)o2)n1	14%	.	.	0%	-2%	.	-1%	.
CC(=O)N1c2ccccc2C(C)CC12CCCCC2 (stereo unspecified)	?	-16%	-5.0%	-54%	-9%	3%	-14%	9%
COc1ccc(C(=O)NC(=S)Nc2cc(C)ccn2)cc1[N+](=O)[O-]	13%	-15%	-4.0%	16%	-7%	18%	1%	4%
CN(CC(=O)Nc1ccccc1Cl)C(=O)COC(=O)c1cc(S(=O)(=O)N(C)C)ccc1N1CCCC1	0%	.	.	.	0%	28%	10%	-1%[46.1 µM]
Cc1ccc2c(c1)cc(CN(C(=O)N1CCOCC1)C1CCCC1)c1nnnn12	-13%	.	.	0%	1%	18%[46.1 µM]	3%	0%
Fc1ccc(Nc2nc(N3CCOCC3)nc(N3CCOCC3)n2)cc1	-19%	.	.	-11%	-4%	7.1µM*	-3%	?
CC(=O)/C(=N\Nc1ccc(C)cc1)Sc1nncn1C	18%	-8%	-7.8%	4%	20%	?	6%	2%
CCOc1ccc(-n2c(=O)c3c4c(sc3n(CC(=O)NC(C)CC)c2=O)CCC4)cc1 (stereo unspecified)	-13%	2%	-2.6%	.	.	?	.	1%[46.1 µM]
COC(=O)C1=C(C)NC(=O)/C1=C\N(C)C	6%	.	.	4%	-1%	4%[46.1 µM]	-10%	13%
COc1ccc(S(=O)(=O)NCc2cccnc2)cc1C(=O)N1CCCCC1	44%[activator]	.	.	1%	-8%	6%[46.1 µM]	7%	.
Cc1ccc(CN(CC(=O)NCC2CCCO2)S(=O)(=O)c2ccc(C)cc2)cc1 (stereo unspecified)	8%	.	.	-14%	-4%	-12%[46.1 µM]	4%	-13%
COC(=O)c1scc(C)c1NC(=O)CC1NCCNC1=O (stereo unspecified)	2%	.	.	0%	2%	.	16%	.
SMILES	StopGo reporter	Cruzain noTriton	Cruzain inh Det	NS1 function inh	SARS PLP yeast	MARV entry inh	RE007 growth inh	LASV entry inh
COc1ccc(NS(=O)(=O)c2cccc(C(=O)NNC(=O)CN3C(=O)NC(C)(C)C3=O)c2)cc1	5%	.	.	.	-2%	22%	11%	2%
O=C(OCC(=O)c1ccc([N+](=O)[O-])cc1)/C(=C\c1ccc(Cl)cc1)NC(=O)c1ccccc1	.	-2%	-4.5%	-39%	-2%	-16%	-5%	14%
CCN(CC(=O)Nc1cc(Cl)ccc1C)C(=O)CN1C(=O)NC(CC)(c2ccccc2)C1=O (stereo unspecified)	-5%	.	.	.	-6%	-10%	-7%	15%
CC(C)(C)c1ccc(Cn2c(Cc3ccccc3)nc3ccccc32)cc1	?	0%	-9.4%	.	.	?	.	?
CN(C)C(=O)NC1c2ccccc2-c2ccccc21	-10%	.	.	1%	-2%	.	17%	.
O=C1NCCNC1c1ccccc1 (stereo unspecified)	-18%	.	.	.	.	11%	14%	5%
COc1ccc(-c2cc(C(=O)N/N=C/c3cccnc3)c3cc(C)cc(C)c3n2)cc1	-27%	.	.	-3%	1%	?	1%	?
CCOc1cc(S(=O)(=O)N2CCOCC2)ccc1F	-13%	-1%	-2.8%	9%	3%	0%[46.1 µM]	0%	?
CCOc1ccccc1NC(=O)CCCc1ccc(OC)c(C)c1	-7%	.	.	-30%	-3%	.	-10%	.
COc1ccc(NC(=O)COC(=O)c2ccc3ccccc3n2)cc1OC	-8%	.	.	.	0%	-6%	14%	1%
O=C(CSCC(=O)Nc1cccc([N+](=O)[O-])c1)Nc1ccccc1	6%	-4%	-5.5%	-5%	?	-1%	-4%	9%
CCCCOc1ccc(-c2nc(=S)[nH][nH]2)cc1	53%[activator]	5%	5.2%	1%	12%	11%	6%	?
CC1CCCCN1C(=O)COc1ccc(NC(=O)c2ccco2)cc1 (stereo unspecified)	44%[activator]	4%	-0.4%	2%	-4%	20%	14%	5%
COCCN(C(=O)c1cc(Cl)ccn1)c1c(N)n(Cc2ccccc2)c(=O)[nH]c1=O	-3%	.	.	.	-3%	-1%	-25%	-7%
CC12CCC(=O)N1C(C(=O)OCC(=O)Nc1cccc(Br)c1)CS2 (stereo unspecified)	-15%	.	.	-7%	-2%	5%[46.1 µM]	3%	-21%[46.1 µM]
Cc1ccccc1NC(=O)Cc1nc(COC(=O)CC(C)c2ccccc2)cs1 (stereo unspecified)	-15%	.	.	.	2%	-3%	7%	-20%
O=C(Cn1c(=O)oc2ccccc21)Nc1ccc(F)cc1	1%	.	.	-1%	-3%	7%[46.1 µM]	-4%	3%[46.1 µM]
Cc1n[nH]c(=O)nc1N1CCc2ccccc2C1	-17%	0%	4.4%	5%	.	-7%	-3%	2%
CN(C)CC(=O)c1ccc(-c2ccccc2)cc1	-3%	?	-2.8%	-110%	-19%	6%	-17%	-2%
N#Cc1ccc(C(=O)N/N=C/c2cn(CC(=O)O)c3ccccc23)c(F)c1	-16%	-19%	-8.8%	-22%	10%	-9%	2%	8%
COc1ccccc1S(=O)Cc1ccc(C(=O)NCc2ccccc2Cl)o1 (stereo unspecified)	-19%	0%	-5.7%	-1%	4%	.	5%	.
Cc1ccc(N2C(=O)CCSC23C(=O)N(Cc2ccccc2)c2ccccc23)cc1F (stereo unspecified)	4%	?	-9.1%	.	.	.	.	-18%[46.1 µM]
COc1ccc(N(CC(=O)Nc2c(C)cccc2C)S(=O)(=O)c2ccccc2[N+](=O)[O-])c(OC)c1	5%	.	.	1%	0%	?	20%	?
CS(=O)(=O)Nc1ccc(C2=NN(S(C)(=O)=O)C(c3cccs3)C2)cc1 (stereo unspecified)	32%[activator]	.	.	.	0%	15%	10%	-11%
COc1ccc(-n2nc(C(=O)NCC(=O)N3CCN(c4ccccc4F)CC3)c3ccccc3c2=O)cc1OC	33%[activator]	.	.	7%	1%	-27%[46.1 µM]	-13%	.
SMILES	StopGo reporter	Cruzain noTriton	Cruzain inh Det	NS1 function inh	SARS PLP yeast	MARV entry inh	RE007 growth inh	LASV entry inh
CCn1cc(C(=O)N[C@@H](CCSC)C(=O)NCCCn2ccnc2)c(=O)c2cc3c(cc21)OCO3	22%	.	.	-11%	-4%	-3%[46.1 µM]	-1%	-3%[46.1 µM]
O=C(c1cccs1)N(Cc1cc2ccccc2[nH]c1=O)c1ccccc1	-8%	-3%	-4.6%	3%	-20%	1%	5%	-3%
CCOCCCNC(=O)C1CCN(Cc2cccc(OCc3ccccc3)c2)CC1	-12%	.	.	15%	11%	2%	1%	2%
CCOc1ccc(NC(=S)NNC(=O)c2ccc(Br)cc2)cc1	-5%	.	.	.	1%	15%[46.1 µM]	2%	?
CC(Cc1ccco1)NC(=O)c1cccc(S(=O)(=O)N(C)C)c1 (stereo unspecified)	38%[activator]	.	.	3%	-1%	?	0%	?
O=C(/C=C/c1ccc2c(c1)OCO2)c1ccccn1	19%	.	.	-54%	-1%	24%[46.1 µM]	?	5%[46.1 µM]
O=C(CSC1=NCCS1)NC(NC(=O)CSC1=NCCS1)c1ccccc1	-11%	.	.	16%	2%	-41%[46.1 µM]	9%	11%[46.1 µM]
c1cc2nnnn2nc1N1CCCCCC1	5%	1%	0.6%	-4%	-7%	29%	9%	-8%
COc1cc(OC)cc(C(=O)NC2CCCCCCC2)c1	41%[activator]	.	.	-6%	-1%	-20%	13%	-8%
COc1ccc(CCNC(=O)CSc2nc3c(c(=O)n(C)c(=O)n3C)n2C(C)C)cc1OC	12%	1%	3.7%	-3%	0%	13%	-6%	7%
Cc1ccc(-c2nc(-c3ccccn3)no2)cc1Cl	-84%	16%	-0.3%	-112%	-6%	?	?	1.4µM*
CCn1c(=O)c(C(=O)Nc2nc3ccccc3[nH]2)c(O)c2ccccc21	?	18%	-6.3%	-93%	-16%	-14%	?	-24%
O=S(=O)(Nc1nc2ccccc2nc1N1CCN(c2ccccc2)CC1)c1ccc(F)cc1	?	32µM*	-3.4%	9%	-1%	2%	15%	2%
COc1ccc(C(CNC(=O)c2ccc(NS(=O)(=O)c3ccc4c(c3)OCCO4)cc2)N(C)C)cc1 (stereo unspecified)	7%	.	.	.	0%	-28%	0%	1%
CC(C)CNC(=O)c1cc(S(=O)(=O)N2CCOCC2)ccc1N1CCCC1	0%	.	.	-1%	-2%	?	-28%	0%
COC(=O)c1ccc(C(=O)OC)c(N)c1	.	4%	-4.4%	-11%	3%	-2%	.	.
CCCCCCCn1ccc(O)c(CC(=O)OC)c1=O	0%	.	.	.	-3%	11%[46.1 µM]	25%	6%
